StopGo RLuc = FMDV 2A StopGo reporter, Renilla signal. AID 1745857. actives 0.32% (n = 120,000). Potency, µM (top dose mostly 57.5 µM), without a hit: at the top dose signal change, negative = less light. HEK cells with a luciferase reporter of 2A StopGo recoding; active means well fitted falling curve with a large enough effect; inconclusive means small, poorly fitted or top-dose-only effect; inactive means no such curve, though single readings can be large or run the other way; further: nearly all actives have a fitted effect of over 55% in size; overnight with compound
2A firefly = lowers the firefly signal of an FMDV 2A StopGo reporter; HEK cells with a luciferase reporter of 2A StopGo recoding; Potency, µM (highest dose often 57.5 µM), for the others: at the highest dose signal change, negative = less light; actives 0.23% (n = 120,000); active = well fitted falling curve with a large enough effect; inconclusive = small, poorly fitted or top-dose-only effect; inactive = no such curve, though single readings can be large or run the other way; further: nearly all actives have a fitted effect of over 60% in size; overnight with compound
The depositor's hits bear a star; u = inconclusive; & = joins results of further samples; [ ] = another dose, or the depositor's remark. On the % scale 0 is the no-effect control and ±100 the full control effect; potency means the concentration at half of the fitted maximal effect.

compound,StopGo RLuc,2A firefly
Cc1cccc(C)c1NC(=O)CCS(=O)(=O)c1ccc2c(c1)CC(C)N2C(=O)C1CC1 (stereo not given),-18%&-2%,0%&-11%
CCOc1cc(C#N)ccc1OC(C)C(=O)c1ccc(OC)cc1 (stereo not given),24%,13%
CCOc1ccc(NC(=O)CSc2nccn2Cc2ccccc2OC)cc1,-5%,-9%
O=C(OCCOc1ccc(Br)cc1)c1cccc([N+](=O)[O-])c1,3%,0%
COc1cc(OC)c(NC(=O)c2c(N3CCCC3=O)c3cc(C)ccc3n2C)cc1Cl,-7%,-10%
CC(=O)c1ccc(NC(=O)CCc2c(C)nn(-c3ccc(N4CCCCC4)nn3)c2C)cc1,-7%,20%
O=C(O)/C(=C/c1ccncc1)NC(=O)c1ccccc1,14%,0%
O=C(CC1NCCNC1=O)OCC1CCCO1 (stereo not given),6%,48%[activator]
Cc1nc2ccc(Cl)cc2cc1C(=O)N1CCN(Cc2ccc(C(N)=O)cc2)CC1,0%,10%
CC(C)CCNc1nc(-c2ccc3[nH]c(=O)[nH]c3c2)cs1,24%,66%[activator]
CCOc1cc(/C=N/O)cc(Cl)c1OCC(=O)NN,89%[activator],39%[activator]
Cc1cc(C)c(C=Nc2cccc([N+](=O)[O-])c2C)c(C)c1,3%,9%
FC(F)(F)c1cc(-c2ccccc2)nc2cc(-c3ccccc3)nn12,18%,67%[activator]
Cn1nc(C(=O)OCC(=O)Nc2ccc(C(N)=O)cc2)c2ccccc2c1=O,-3%,-1%
O=C(NCc1c(-n2cccc2)sc2c1CCCC2)Nc1cccc(C(F)(F)F)c1,-6%,-12%
O=C(c1cn(-c2ccccc2)nc1-c1cccnc1)N1CCN(c2ccccc2O)CC1,49%[activator],36%[activator]
COc1ccc(/C=C/c2nc(C#N)c(NCCCN3CCOCC3)o2)cc1OC,9%,13%
CCCOc1ccc(OC(=O)c2sc3ncn(Cc4cccc(F)c4)c(=O)c3c2C)cc1,6%,-7%
COc1ccc(C(C(=O)Nc2ccc3c(c2)OCCO3)N(C)C(=O)Cc2cccs2)cc1 (stereo not given),29%,0%
O=C(c1nc(-c2ccc(Cl)cc2)n2c1CCCCC2)N1CCN(c2ccccc2)CC1,-6%,-16%
Cc1ccc(C(=O)[C@@H]2[C@@H]3CCCN3[C@]3(C(=O)Nc4c(Cl)cccc43)[C@@]23C(=O)Nc2ccccc23)cc1,16%,24%
CC(=O)Nc1ccc(CNCc2nc(C)cs2)cc1,-2%,79%[activator]
CCNC(=O)c1cc(-c2ccc(C)s2)nc2ccccc12,20%,57%[activator]
COc1cc(OC)c(OC)cc1CNCCCSc1nnnn1C,-9%,-6%
C=CCNC(=S)Nc1cc(C(F)(F)F)cc(C(F)(F)F)c1,-84%,u
Cc1ccc(C)c(NC(=O)Nc2cccc(-c3cn4cccnc4n3)c2)c1,0%,7%
CCC(C(=O)Nc1ccc(C(C)C)cc1)n1nc(C)n2c(cc3cc(C)ccc32)c1=O (stereo not given),7%,41%[activator]
Cc1oc(-c2ccc(C(=O)NCCCOC(C)C)cc2)nc1CS(=O)(=O)c1ccccc1,-1%,-3%
COc1ccc(OCCCC(=O)Oc2ccc3oc4ccccc4c3c2)cc1,42%[activator],178%[activator]
CCc1ccccc1NC(=O)Cn1c(=O)oc2ccccc21,4%,-1%

Pulled by compound from above (5):
compound,StopGo RLuc,2A firefly
COc1ccc(C(C(=O)Nc2ccc3c(c2)OCCO3)N(C)C(=O)Cc2cccs2)cc1 (stereo not given),29%,0%
COc1cc(OC)c(OC)cc1CNCCCSc1nnnn1C,-9%,-6%
CCCOc1ccc(OC(=O)c2sc3ncn(Cc4cccc(F)c4)c(=O)c3c2C)cc1,6%,-7%
CCNC(=O)c1cc(-c2ccc(C)s2)nc2ccccc12,20%,57%[activator]
Cc1oc(-c2ccc(C(=O)NCCCOC(C)C)cc2)nc1CS(=O)(=O)c1ccccc1,-1%,-3%

The results go on:
compound,StopGo RLuc,2A firefly
Cc1nc2ncnn2c(N2CCCCCC2)c1Cc1ccccc1,-1%,-2%
CCOC(=O)c1c(C)oc2nc(C)nc(NCc3ccc(C)cc3)c12,1%&-7%,9%&-2%
Cc1c(NC(=O)Nc2cccc(C(F)(F)F)c2)sc2nc3n(c(=O)c12)CCC(C)CC3 (stereo not given),-6%,-19%
CCCCCCOc1ccc(/C=C(/C#N)c2ccccn2)cc1,-3%,77%[activator]
Cc1ccc(CSCCC(=O)O)cc1,9%,8%
COc1cc(CC(=O)NC2CCCCCCC2)cc(OC)c1OC,8%,7%
C/C(=C\c1ccccc1)C(=O)Nc1ccc(C)cc1C,-1%[1.06 µM],181%[activator]
C#C[C@]1(O)CC[C@H]2[C@@H]3CCC4=CC(=O)CCC4=C3C=C[C@@]21CC,6%,3%
CCOC(=O)c1c(S(=O)(=O)N2CCCC(C(=O)Nc3cccc(Cl)c3)C2)c(C)n(C)c1C (stereo not given),1%,-12%
COCCn1c(CNC(=O)c2cccc(N(C)C)c2)nc2cccnc21,-11%,38%[activator]
O=C(C1=C(c2ccccc2)S(=O)(=O)CCO1)N(Cc1cccc(F)c1)c1ccccn1,u,13%
CC(C)CCOc1ccc(C(=O)Nc2sc3c(c2C#N)CCCCC3)cc1,-3%,-4%
CC(CC(=O)Nc1ccc(NC(=O)C(C)(C)C)cc1)c1ccccc1 (stereo not given),-21%,-12%
COC(=O)c1ccccc1S(=O)(=O)N1CCC(C(=O)NCCc2ccccn2)CC1,-9%,-9%
Cc1ccc2ccc3cc(C(=O)Nc4ccc(C)c(F)c4)nc3c2[nH]1,-7%,88%[activator]
CCOC(=O)C(C#N)c1nc2ccccc2nc1N1CCCC1 (stereo not given),-13%,-4%
CS(=O)Cc1cccc(C(=O)NC2CCCCC2)c1 (stereo not given),9%,40%[activator]
CCOc1ccc(NC(=O)NCc2ccc3c(c2)CCN3C(C)=O)cc1,11%,13%
NC(=O)C1CCN(S(=O)(=O)c2cc3c(cc2Cl)NC(=O)CO3)CC1,-2%,-11%
Cc1cc(C(=O)OC(C)C(=O)NC(N)=O)c2ccccc2n1 (stereo not given),-6%,-2%
COc1ccc(C(O)c2nccn2Cc2ccccc2)c(OC)c1 (stereo not given),-13%,6%
O=C(CSc1nc(=O)n(Cc2ccccn2)c2c1CCC2)Nc1cccc(Cl)c1,155%[activator],-1%
Cc1cccc(NC(=O)C(=O)c2cc(C)n(-c3ccccc3)c2C)c1C,17%,26%
CC(C)CNC(=O)CCNC(=O)NCc1nc2c(cnn2-c2ccccc2)c(=O)[nH]1,-8%,-6%
CN(CC(=O)Nc1cc(Cl)ccc1F)Cc1ccccc1N1CCCCC1,-19%,-15%
CC(C)c1nn2c(=O)cc(COC(=O)c3cccc(NC(=O)CCc4ccccc4)c3)nc2s1,-7%,3%
Cc1ccc(NC(=O)CN2CCN(C3CCCCC3)C(=O)C2=O)cc1C,-16%,-17%
COc1ccc(NC(=O)CN2C(=O)COc3ccc(S(=O)(=O)N4CCCCCC4)cc32)cc1,-6%,-16%
CCOCCCNC(=O)C(c1ccc(C)cc1)N(Cc1cccs1)C(=O)CCc1cc(C(C)(C)C)c(O)c(C(C)(C)C)c1 (stereo not given),0%,-19%
CCC(C)[C@H](N)c1nnc(SCC(=O)Nc2cc(C)ccc2C)o1 (stereo not given in full),-9%,-1%
O=C(Nc1nc2ccc(Cl)cc2s1)c1ccc(S(=O)(=O)N2CCCC2)cc1,-3%,1%
CCc1ccccc1NC(=O)c1cnc2sc(N3CCOCC3)nn2c1=O,17%,7%
CCN(C(=O)Cn1c(=O)n(CC)c(=O)c2sccc21)c1ccccc1,-6%,-7%
O=C(CSc1nc2c(c(=O)[nH]1)CN(Cc1ccc3c(c1)OCO3)CC2)Nc1ccccc1Cl,5%,-3%
CC(=O)Nc1ccc(NC(=O)c2nc(-c3ccccc3)oc2C)cc1,5%,22%
Cc1cc(I)ccc1NC1CCOC1=O (stereo not given),1%,-3%
CCc1cccc(NC(=O)Cn2nc(-c3ccc(OC)cc3)ccc2=O)c1,11%,6%
C=C(Br)CNCCCC,0%,17%
Nc1nonc1C(=O)N1CCN(C(=O)Nc2ccccc2Cl)CC1,-1%,9%
COc1ccc(-c2nnc(SCC(=O)Oc3cccc(C)c3C)o2)cc1,-7%,-2%
C=CCSC1=N/C(=C\C=C\c2ccccc2)C(=O)S1,23%,8%
COCCn1cnc2c1c(=O)n(CC(=O)Nc1ccc(F)c(F)c1)c(=O)n2CC(C)C,2%,4%
CN(C)c1nc(N(C)C)nc(N(C)C)n1,-9%,-10%
COc1cccc(CNC(=O)c2ccc(-c3nc(CS(=O)(=O)c4ccccc4)c(C)o3)cc2)c1,-11%,-22%
CN(CC(=O)N1CCN(c2ccccc2F)CC1)c1nnc(N2CCCC2=O)s1,-12%,-5%

Complete entries as entered above.
C=CCSC1=N/C(=C\C=C\c2ccccc2)C(=O)S1 reads StopGo RLuc = 23%; 2A firefly = 8%
O=C(CSc1nc2c(c(=O)[nH]1)CN(Cc1ccc3c(c1)OCO3)CC2)Nc1ccccc1Cl reads StopGo RLuc = 5%; 2A firefly = -3%

The list goes on.
compound,StopGo RLuc,2A firefly
COc1ccccc1-c1cc(=O)c2cc(NS(=O)(=O)c3ccc(C)cc3)ccc2o1,221%[activator],62%[activator]
COCCN(C(=O)c1cc(-c2ccco2)nc2ccccc12)c1c(N)n(CC(C)C)c(=O)[nH]c1=O,-8%,-4%
Cc1ccc(-c2cc3ccccn3c2)cc1,5%,112%[activator]
CS(=O)(=O)CCCN,1%,-6%
Cc1cccc(C(=O)Nc2ccc(-c3nc4ncccc4o3)cc2C)c1,-15%,2%
Cn1ccc2c(OCC(=O)NCc3ccc(F)cc3)cccc2c1=O,47%[activator],22%
O=C1CN(CC(=O)Nc2c(Cl)cc(Cl)cc2Cl)CCN1,-13%,-12%
COc1cccc(/C=C(\C#N)C(=O)Nc2ccccc2C(F)(F)F)c1OCc1ccc(F)cc1,41%[activator],0%
CCN(C(=O)Cn1cnc2onc(-c3ccc(F)cc3)c2c1=O)c1cc(C)ccc1C,-15%,-15%
CCN(C(=O)C(C)N(C)CC(=O)Nc1cccc(F)c1)C1CCCCC1 (stereo not given),7%,12%
Cc1cc(C)cc(OC[C@@H](O)CN2CCC(C(O)(c3ccccc3)c3ccccc3)CC2)c1,-4%,-14%
CCCNC(=O)NC(=O)CN(CC(C)O)c1ccccc1 (stereo not given),37%,2%
CN(Cc1ccc(C(=O)NC2CC2)cc1)C(=O)c1cc(=O)[nH]c2ccccc12,-8%,2%
CCOc1ccc(NC(=O)C2CCCN(c3ccc(Sc4ccc(C)cc4)nn3)C2)cc1 (stereo not given),-11%,-14%
CCc1nn2c(=O)cc(COC(=O)c3ccccc3)nc2s1,-5%,-6%
COc1ccc(C(=O)NCC(c2ccco2)S(=O)(=O)c2cccs2)cc1 (stereo not given),32%[activator],21%
O=C(COC(=O)c1ccccc1Br)c1ccc([N+](=O)[O-])cc1,u,u
Cc1cccc(OCC(=O)N2CCN(Cc3cc(=O)n4nc(-c5ccccc5Cl)sc4n3)CC2)c1,-3%,-6%
CC(C)C(NC(=O)Cn1cnc(C#N)n1)c1ccccc1 (stereo not given),-3%,-10%
O=C1CSC(c2ccccc2Br)c2cn[nH]c2N1 (stereo not given),6%,22%
COc1ccc(C(C)NC(=O)CCOc2ccc(Cl)cc2)cc1F (stereo not given),1%,-3%
COc1ccc(CNC(=O)CSc2nc3ccc(NC(=O)c4ccccc4C)cc3s2)cc1,-3%,43%[activator]
CNC(=S)NNC(=O)C(=O)NNC(=S)NC,-10%,16%
Cc1csc2nc(COC(=O)CNC(=O)c3ccccc3)cc(=O)n12,-11%,-5%
CC(C)(C)OC(=O)N1CCC(c2c(C(=O)N3CCN(c4ccccn4)CC3)cnn2-c2ccc(F)cc2F)CC1,-5%,-21%
COCCn1c(SCC#N)nnc1-c1ccc(Cl)cc1,8%,-3%
COC(=O)c1cc2oc(C)cc2n1CC(=O)Nc1cc(Cl)ccc1OC,-3%,10%
COC(=O)c1sc(S(=O)(=O)Nc2cc(F)ccc2C)c(C(=O)OC)c1C,-16%,-5%
CCC(Oc1ccccc1F)C(=O)N1CCC(c2nc3ccccc3s2)CC1 (stereo not given),-10%,-14%
COc1ccccc1CNC(=O)COc1ccc2c(=O)c(Oc3ccccc3)c(C)oc2c1,29%,-7%
CN1CCN(c2oc(-c3ccccc3)nc2S(=O)(=O)c2ccc(F)cc2)CC1,-2%,-16%
CCc1cccc2c(C(=O)Cn3nnc(-c4ccccc4)n3)c[nH]c12,27%,28%
Cc1ccc2ncc(C(=O)Nc3ccc(F)cc3F)c(=O)n2c1,-6%,2%
Cc1cc(C)cc(-n2ccn3c(CC(C)(C)CC(=O)O)nnc3c2=O)c1,-8%,-8%
CC(=O)Nc1ccc(NC(=O)CSc2ncnc3nc[nH]c23)cc1,5%,9%
C/C(=N/NC(=O)c1ccc(C)cc1C)c1cccc2ccccc12,43%[activator],71%[activator]
Cn1c(=O)c2sc3c(c2n(CC(=O)NCCc2ccccc2)c1=O)COC(C)(C)C3,1%,-1%
